Screening data from PubChem BioAssay.
VDR inh – Inhibitors of the vitamin D receptor (VDR): qHTS; Potency, µM, inactives show max response, negative = inhibition, most hits filed as inhibitors; VDR-SRC2-3 peptide fluorescence polarization, 2 h; AID 504847, 2011; 400,000 tested, 0.93% active; active means well fitted inhibition curve with a large enough effect; inconclusive means small, poorly fitted or top-dose-only effect, or another doubt; inactive means no such curve, though single readings can be large or run the other way; further: series mostly up to about 120 µM
Target sequence (P11473 whole entry, looked up): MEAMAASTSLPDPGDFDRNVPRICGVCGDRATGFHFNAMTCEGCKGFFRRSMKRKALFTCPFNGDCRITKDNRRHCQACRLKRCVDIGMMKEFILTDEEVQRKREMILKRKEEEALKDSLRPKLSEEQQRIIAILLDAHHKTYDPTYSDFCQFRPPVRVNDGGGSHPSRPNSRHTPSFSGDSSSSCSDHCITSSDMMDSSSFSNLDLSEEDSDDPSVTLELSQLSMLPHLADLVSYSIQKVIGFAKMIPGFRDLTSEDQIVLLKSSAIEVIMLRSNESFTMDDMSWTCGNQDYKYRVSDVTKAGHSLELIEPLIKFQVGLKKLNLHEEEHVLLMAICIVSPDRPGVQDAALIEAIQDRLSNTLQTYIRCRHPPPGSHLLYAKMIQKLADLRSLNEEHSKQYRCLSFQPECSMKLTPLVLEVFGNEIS
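FP read-out; VDR + SRC2-3 coactivator peptide; 23 nl compound by pintool; 2 h RT incubation; reagents held at 4 deg C, protected from light.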
* hit, by the source's call; ? = inconclusive; [ ] = remark or other dose. On the % scale 0 is the no-effect control and ±100 the full control effect; potency means the concentration at half of the fitted maximal effect. A portion of the library, so the mix of outcomes need not match the whole.

SMILES | VDR inh
OCC1(Cc2ccccc2F)CCCN(CCc2ccccc2)C1 (stereo not drawn) | -8%
CCc1ccc(S(=O)(=O)Nc2ccc(Br)cn2)cc1 | 36%[activator]
COc1ccc(NC(=O)c2c(NCc3ccc(N(C)C)cc3)sc3c2CCC3)cc1 | -6%
CN(C)c1cc(NC(=O)CNC(C)(C)C)c2ccccc2n1 | -26%
Cc1cc(C)c2c3c(oc2n1)C(=O)N(c1cccc(Cl)c1)CC(=O)N3 | 20%
c1ccc(CCn2cnc3ccccc32)cc1 | 3%
O=C1Nc2ccccc2C1(O)c1ccccc1O (stereo not drawn) | -11%
Cc1ccc(Cl)cc1N1CCN(C(=O)C2CCN(c3nnc(-n4cccc4)s3)CC2)CC1 | 15%
Cc1cc(C)n(-c2nc3c(c(=O)n(C)c(=O)n3C)n2Cc2cccc(Br)c2)n1 | 0%
COc1ccccc1NS(=O)(=O)c1ccc(C)c(C(=O)NCC(c2ccco2)N2CCCCC2)c1 (stereo not drawn) | -4%
O=c1cc(CSc2nnc3ccccn23)c2c(ccc3ccccc32)o1 | -11%
Cc1ccc(/C=C(\NC(=O)c2ccccc2)C(=O)NCC2CCCO2)o1 (stereo not drawn) | -7%
Cc1[nH]c(=O)[nH]c(=O)c1NC(=O)CSc1ncccc1-c1nc2ccccc2[nH]1 | 8%
CC(=O)N(C)c1ccc(OCC(O)CN(c2ccccc2C)S(=O)(=O)c2ccc(C)cc2)cc1 (stereo not drawn) | 16%
O=C1OC(c2ccc3c(c2)OCO3)N(C(=O)c2ccc(Cl)c(Cl)c2)c2ccccc21 (stereo not drawn) | -13%
N#Cc1cccnc1N1CCN(C(=O)c2ccc3c(c2)S(=O)(=O)c2ccccc2C3=O)CC1 | -7%
O=C1C(=O)N(Cc2cccnc2)C(c2cccc(F)c2)/C1=C(/O)c1ccc2c(c1)OCO2 (stereo not drawn) | -6%
CCc1nnc(NS(=O)(=O)c2ccc(NC(=S)NC(=O)c3ccccc3)cc2)s1 | -12%
Cc1nn(C)c(C)c1/C=C(/C(=O)C(C)C)n1cncn1 | -2%
Cc1ccc(-c2nc(N)n(C(=O)c3cccs3)n2)cc1 | -9%
O=C(Cn1c(-c2ccccc2)c[n+]2ccsc12)c1ccccc1 | 12%
Cc1ccc(-c2noc(CCC(=O)N3CCN(c4cccc(C(F)(F)F)c4)CC3)n2)cc1 | 21%
CCCn1c(SCC(=O)NCc2ccccc2)n[nH]c1=O | -15%
CN1C(=O)c2ccccc2Sc2ccc(NC(=O)c3ccc(C#N)cc3)cc21 | 4%
O=C(O)CSc1nnc(-c2ccncc2)n1CCc1ccccc1 | -2%
Next compounds follow.
SMILES | VDR inh
Cc1ccc(C(=O)N2CCN(c3cccc(C)c3C)CC2)cc1S(=O)(=O)N1CCOCC1 | -20%
COc1ccc(C(=O)NCCN(C)C)c2nc3ccccc3cc12 | -20%
O=C(Nc1nnc(SCC(=O)N2CCCc3ccccc32)s1)c1ccc2ccccc2c1 | -14%
Cc1cc(C)c(CN2CCCC(CNC(=O)c3ccc(F)cc3)C2)c(-n2cccn2)c1 (stereo not drawn) | -14%
CCc1ccc(-c2cc(C)no2)cc1S(=O)(=O)N1CCN(c2ccc(C(C)=O)cc2)CC1 | 3%
Cc1oc(-c2ccc(Cl)cc2)nc1CSc1nnc(C)n2c1cc1sccc12 | 2%
c1ccc2c(c1)oc1c(NCC3CCCO3)ncnc12 (stereo not drawn) | 10%
CCOC(=O)c1c(NC(=O)/C=C/c2ccc(OCC)cc2)sc(C)c1C | -3%
CCN(CC)C(=O)CSc1nc2[nH]ncc2c(=O)[nH]1 | 8%
Cc1ccc(CN2C(=O)[C@@H]3Cc4c([nH]c5ccccc45)C(C)(C)N3C2=O)cc1 | -1%
Cc1nnc(SCC(=O)Nc2ccc3[nH]c(=O)[nH]c3c2)s1 | -21%
Cc1cccc(CS(=O)(=O)Cc2ccc(C(=O)NCc3ccco3)o2)c1 | -1%
CC(C)=CC(=O)OCC(=O)Nc1ccc(SC(F)F)cc1 | -4%
Cc1ccc(SCc2cc(=O)[nH]c(Nc3nc(C)c4cccc(C)c4n3)n2)cc1 | 13%
CC1C/C(=N\NC(=O)c2ccc(NS(=O)(=O)c3ccc(Br)cc3)cc2)CC(C)(C)C1 (stereo not drawn) | -8%
O=c1nc(N/N=C/c2ccccn2)cn[nH]1 | 7%
COc1ccccc1C(=O)NCCC(=O)NC1CCCCCC1 | 10%
COc1ccc(/C=N\n2nnc3ccccc32)cc1 | -27%
COCCCn1c(=O)c2sccc2n2c(CCCC(=O)NC3CCC(C)CC3)nnc12 (stereo not drawn) | -1%
CCS(=O)(=O)c1ccccc1C(=O)Nc1ccc(-c2nc3ccccc3s2)cc1 | 2%
CN(C(=O)CSc1nc2ccc(NC(=O)c3cccs3)cc2s1)c1ccccc1 | 10%
CN(c1cccc(NC(=O)c2ccc(CN3CCc4ccccc4C3)cc2)c1)S(C)(=O)=O | -6%
O=C(O)C1C2C=CC(O2)C1C(=O)NCc1ccc(Cl)cc1 (stereo not drawn) | -8%
CCc1nc2ccc(C(=O)NCc3ccco3)cc2nc1CC | 1%
CCOC(=O)c1sc(-c2ccc(C)cc2)c(C#N)c1C | -28%
Carrying on.
SMILES | VDR inh
CC(C)OC(=O)c1ccc2nc3ccccc3nc2c1 | -2%
Cc1cc(=O)[nH]c(N/N=C/c2ccc(N(C)C)cc2)n1 | 0%
O=C1C2CC=CCC2C(=O)N1Cc1ccccc1 (stereo not drawn) | 6%
O=C(Nc1ccccc1-c1ccccc1)c1ccc(Cl)c([N+](=O)[O-])c1 | -5%
CCOc1cc(NC(=O)c2ccccn2)c(OCC)cc1NC(=O)c1ccc(C)cc1 | -5%
Cn1c(=O)c2c(ncn2CC(=O)N2CCN(S(=O)(=O)c3ccc(F)cc3)CC2)n(C)c1=O | 2%
COc1ccc(-c2nnc3ccc(SCC(=O)N4CCCC4)nn23)cc1 | -10%
Cc1ccc(CNC(=O)CCNS(=O)(=O)c2cccc3nonc23)cc1 | 17%
Cc1nc2ccccn2c1C(=O)/C=C/c1cccc([N+](=O)[O-])c1 | -5%
COc1ccccc1CN1CC(C(=O)NCc2cc(F)ccc2C)CCC1=O (stereo not drawn) | 5%
CCOC(=O)C1CCN(S(=O)(=O)CCNC(=O)c2ccc(F)cc2)CC1 | -15%
COn1c2c(c3c4nonc4ccc31)CCCC2 | ?
CCOc1ccc(C(=O)NCCc2sc(-c3ccc(OC)c(OC)c3)nc2C)cc1 | 4%
CN(CC(=O)Nc1ccccc1C(F)(F)F)CC(=O)N1CCCCCC1 | ?
Nc1cc(Cl)ccc1N1C(=O)CCC1=O | 9%
C=Cc1ccc(C(=O)NC2CCCN(Cc3ccccc3F)C2)cc1 (stereo not drawn) | -9%
CCOc1cccc(CN2CCC(n3nccc3NC(=O)CCCc3ccccc3)CC2)c1 | -9%
COc1ccc(NC(=O)NNC(=O)COc2ccc3cc(Br)ccc3c2)cc1OC | -18%
Cc1ccc(NC(=O)c2cccs2)cc1S(=O)(=O)Nc1cccc(Cl)c1 | 2%
COc1ccc(-c2cc(C(=O)c3c(N)n(C)c(=O)n(C)c3=O)c3ccccc3n2)cc1OC | -7%
COC(=O)c1cccc(NC(=O)/C=C/c2cccc([N+](=O)[O-])c2)c1 | 3%
CC(Sc1nccn1C)C(=O)c1c(N)n(C)c(=O)n(C)c1=O (stereo not drawn) | 3%
CCN(CCn1cccn1)C(=O)c1cc(COc2ccccc2SC)on1 | -7%
C=CCC(C)(NCc1ccccc1)C(=O)OCC (stereo not drawn) | 4%
COC(=O)[C@H](CC(C)C)N(Cc1ccccc1)S(=O)(=O)N(Cc1ccc(OC)cc1)[C@@H](CC(C)C)C(=O)OC | -12%
Next results follow.
SMILES | VDR inh
O=C(COC(=O)CNC(=O)c1cccc([N+](=O)[O-])c1)Nc1cccc(S(=O)(=O)N2CCCC2)c1 | -2%
OC1CCCC1 | -2%
COc1ccccc1C=NN=Cc1ccccc1OC | 5%
O=C(CN1C(=O)COc2ccccc21)Nc1ccc(F)cc1 | -3%
CC(=O)n1nc(-c2ccco2)nc1SCc1ccccc1 | ?
CCN(CC)S(=O)(=O)c1cccc(-c2nnc(SCC(=O)NCCC3=CCCCC3)n2N)c1 | 9%
CCOc1ccc2nc(SCC(=O)NC3CCCCC3)[nH]c2c1 | 1%
Cc1ccc(C)c(N2CCN(Cc3nnc(-c4ccc5c(c4)OCO5)o3)CC2)c1 | -9%
CCOC(=O)CSc1nnc(C)c(=O)[nH]1 | 4%
Cc1cc(C)cc(C(=O)NC(CC(N)=O)c2ccc(NC3CCCCCCC3)c([N+](=O)[O-])c2)c1 (stereo not drawn) | -5%
CCO/C=C1\C(=O)N(CC)c2ccccc21 | 21%
CC(C)(C)OC(=O)N1CCC(c2c(C(=O)Nc3ccc4c(c3)OCO4)cnn2-c2ccccc2)CC1 | 7%
O=S(=O)(N/N=C/c1ccc(F)cc1)c1ccccc1 | 9%
CCc1ccccc1OCC(=O)Nc1ccc2c(c1)OCCO2 | 1%
O=C(CSc1nnnn1C1CCCCC1)NCCc1ccccc1 | -12%
Cc1ccc(C)c(S(=O)(=O)N2CCN(c3nc(CN4CCOCC4)nc4sc(C)c(C)c34)CC2)c1 | -7%
CCC(C)[C@H]1CNC(=O)C(=O)N1CCCc1cc(OC)c(OC)c(OC)c1 (stereo partly drawn) | -5%
CCc1nnc(NC(=O)CSCc2cc(=O)n3nc(C)sc3n2)s1 | ?
Cc1ccc2occ(CC(=O)N3CCN(c4cccc(Cl)c4)CC3)c2c1 | -3%
Cc1ccccc1OCC(=O)N/N=C/c1cn(Cc2ccccc2)c2ccccc12 | -4%
COc1ccc(OCC(=O)Nc2ccc3c(c2)nc(CCn2ccccc2=O)n3C)cc1 | -7%
COc1ccc(OCC(=O)OCC(=O)NC2CC2)cc1 | 4%
CCOC(=O)c1cc(-c2ccc(OC)cc2)nc2c1c(C)nn2CCC(N)=S | 12%
O=C(CCN1C(=O)/C(=C/c2ccccc2Cl)SC1=S)N1CCCC1 | 14%
Cc1ccc(NC(=O)c2ccc(S(=O)(=O)N3CCCCC3)cc2)cc1 | -8%

Filtered by structure: the compounds so far with fluorine (12)
SMILES | VDR inh
OCC1(Cc2ccccc2F)CCCN(CCc2ccccc2)C1 (stereo not drawn) | -8%
O=C1C(=O)N(Cc2cccnc2)C(c2cccc(F)c2)/C1=C(/O)c1ccc2c(c1)OCO2 (stereo not drawn) | -6%
Cc1ccc(-c2noc(CCC(=O)N3CCN(c4cccc(C(F)(F)F)c4)CC3)n2)cc1 | 21%
Cc1cc(C)c(CN2CCCC(CNC(=O)c3ccc(F)cc3)C2)c(-n2cccn2)c1 (stereo not drawn) | -14%
CC(C)=CC(=O)OCC(=O)Nc1ccc(SC(F)F)cc1 | -4%
Cn1c(=O)c2c(ncn2CC(=O)N2CCN(S(=O)(=O)c3ccc(F)cc3)CC2)n(C)c1=O | 2%
COc1ccccc1CN1CC(C(=O)NCc2cc(F)ccc2C)CCC1=O (stereo not drawn) | 5%
CCOC(=O)C1CCN(S(=O)(=O)CCNC(=O)c2ccc(F)cc2)CC1 | -15%
CN(CC(=O)Nc1ccccc1C(F)(F)F)CC(=O)N1CCCCCC1 | ?
C=Cc1ccc(C(=O)NC2CCCN(Cc3ccccc3F)C2)cc1 (stereo not drawn) | -9%
O=C(CN1C(=O)COc2ccccc21)Nc1ccc(F)cc1 | -3%
O=S(=O)(N/N=C/c1ccc(F)cc1)c1ccccc1 | 9%

The listing continues.
SMILES | VDR inh
Cc1ccc(C(=O)OCC(=O)N2CCC(Cc3ccccc3)CC2)cc1N | 14%
COC(=O)[C@]1(C)N[C@H](CN(C)C(=O)c2ccc(F)cc2)[C@@H]2C(=O)N(Cc3ccccc3)C(=O)[C@@H]21 | 6%
COc1ccc(CCNc2nc(-c3sc(C)nc3C)cs2)cc1OC | -15%
Cc1cc(NC(=O)c2ccc(Cl)cc2)n(CCOC(=O)c2ccc(Cl)cc2)n1 | -3%
CC1CCCCC1NC(=O)CN1c2cccc3cccc(c23)S1(=O)=O (stereo not drawn) | -10%
CCOC(=O)CSC1=NC(=O)/C(=C/c2ccc(Br)cc2)S1 | ?
Cc1cc(OCC(=O)NCCCN2CCCC2=O)c2c(C)c(C)c(=O)oc2c1 | -11%
O=C(CN1C(=O)C2CC=CCC2C1=O)N1CCN(S(=O)(=O)c2ccccc2)CC1 (stereo not drawn) | 2%
N#Cc1c(N2C(=O)Nc3ccccc3N2O)sc2c1CCCCCC2 | -22%
CC1CCCN(S(=O)(=O)c2cc3c(cc2Cl)NC(=O)CO3)C1 (stereo not drawn) | 10%
CCOC(=O)C1CCN(C(=O)CSc2c3c(nc4ccccc24)CCC3)CC1 | 1%
O=C(O)c1ccccc1C(=O)NNc1cccc(Cl)n1 | -13%
Cc1cccc(C(=O)N2CCCCCC2)c1[N+](=O)[O-] | 10%
Cc1noc(C)c1C(=O)OC(C)C(=O)Nc1ccc2c(c1)OCO2 (stereo not drawn) | -14%
COc1ccc(S(=O)(=O)N(C)c2ccc(C(=O)N3CCCC3)cc2)cc1 | -1%
CCC(Oc1ccccc1)C(=O)Nc1cc(C)on1 (stereo not drawn) | 9%
COc1ccc(Cc2nnc(SCC(=O)Nc3ccccc3C#N)o2)cc1 | -7%
CCOC(=O)N1CCN(C2CCCN(C(=O)c3cccc(N(C)C)c3)C2)CC1 (stereo not drawn) | 0%
COc1ccc(NC(=O)CSc2nc3ccccc3c(=O)n2CCCN2CCOCC2)c(OC)c1 | 16%
CC1CN(C(=O)CCC(=O)N2CCN(c3ccccn3)CC2)c2ccccc2O1 (stereo not drawn) | -16%
CCOC(=O)CSc1nnc2n(-c3ccccc3)c(=O)c3c4c(sc3n12)CC(C(C)(C)C)CC4 (stereo not drawn) | 2%
O=C(CN1C(=O)S/C(=C\C=C\c2ccccc2)C1=O)Nc1cccc(O)c1 | -2%
